# LANA-H2B inh – blockers of LANA interaction with H2A/H2B – biochemical, FP readout, HTS, primary screen; AID 2629, 2010; Protein LANA1 (Human herpesvirus 8 type P (isolate GK18)), Q9QR71; 320,000 compounds, 0.6% hits; cell-free LANA-H2A/H2B peptide, fluorescence polarization; inhibition, % (no concentration beside the values); in the data active = inhibition mostly above about 10%, no sharp cut-off; inactive = mostly below about 6.7%;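 also: stock transfer was 7.5 nL into about 10 µL; 0% = median of vehicle wells and 100% = median of positive control wells; one replicate is shown; the record names a cut of 25% in any replicate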
# Bfl-1 A1 inh – caspase 3/7 activation in MEF A1-2A-BIM cells, primary screen, A1 inhibitor project, cell-based, luminescence, HTS | Caspase-Glo 3/7 luminescence, 3 h; percent of clofoctol response, vehicle zero | 330,000 compounds, 0.066% hits | caspase activation, % (concentration not given with the values);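 active = over half of replicate activation scores above 10%, or exactly half above 10 with the replicate mean above 10; inconclusive = replicate mean below 10 yet half the replicates above 10; inactive = over half of replicates below 10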;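 also: wells of about 30 µL received 50 nL stock; many hits fall short of the cut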
# Beta cell apopt – inhibitors of cytokine-induced beta cell apoptosis, primary screen, luminescence; INS-1E cytokine-induced death, ATP luminescence, 48 h; percent of positive-control rescue, neutral wells zero; protection from apoptosis, % (concentration not given with the values); 300,000 compounds, 0.8% hits; AID 435005, 2010;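 active = all replicates at 75% or more, or half of them and the mean; inconclusive = half reach 75% but not the mean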;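 also: 0% = cytokine-treated negative control wells and 100% = positive control rescue; higher means more ATP so stronger rescue from cytokine killing; wells of about 40 µL received 100 nL stock; the first replicate is given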
# T cruzi repl – inhibitors of intracellular T. cruzi growth, primary screen, luminescence, NIH3T3 host cells; T. cruzi beta-gal in NIH3T3, 90 h; inhibition, % (concentration not given with the values); 300,000 compounds, 1.4% hits;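 active = mean inhibition across valid replicates above about 55%, limit read from the data; inconclusive = mean below that limit but half or more replicates reach it; inactive = mean below it, under half of replicates reach it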;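 also: signal also drops with host cell toxicity which is not excluded here; 0% = plate median of DMSO wells and 100% = zero luminescence signal; higher percent means less beta-gal luminescence so fewer parasites; stock transfer was 50 nL into about 50 µL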
# RanGTP-Imp inh – inhibitors of RanGTP-importin-beta interaction, primary screen, biochemical, FRET, CFP-Ran, YFP-importin-beta, homogeneous; inhibition, % (test concentration not listed); 300,000 compounds, 1.1% hits; Ran GTPase (GTP-bound) - importin-beta complex; cell-free CFP-Ran/YFP-importin-beta FRET ratio; AID 2216, 2009;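 active = most replicates above 15%; inconclusive = exactly half above 15%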;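 also: 0% = DMSO wells and 100% = Ran loaded with GDP instead of GTP; wells of about 40 µL received 100 nL stock; the first replicate is given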
# B2AR ag – beta2AR agonists driving receptor internalization, primary screen, cell-based, FAP fluorogen, flow cytometry | Beta-2 adrenergic receptor (Homo sapiens), P07550 | Am2.2-beta2AR cells; reference of the scale not given here | response, % (no concentration beside the values) | 340,000 compounds, 0.43% hits;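 active = response above a set limit, near 3 SD of response in nonfluorescent compounds, cut at about 42% in these data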;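 also: stock transfer was 100 nL into about 11 µL; a reference agonist was the positive control; negative values mostly stem from fluorescent compounds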
# Target sequence (P07550 whole entry, looked up): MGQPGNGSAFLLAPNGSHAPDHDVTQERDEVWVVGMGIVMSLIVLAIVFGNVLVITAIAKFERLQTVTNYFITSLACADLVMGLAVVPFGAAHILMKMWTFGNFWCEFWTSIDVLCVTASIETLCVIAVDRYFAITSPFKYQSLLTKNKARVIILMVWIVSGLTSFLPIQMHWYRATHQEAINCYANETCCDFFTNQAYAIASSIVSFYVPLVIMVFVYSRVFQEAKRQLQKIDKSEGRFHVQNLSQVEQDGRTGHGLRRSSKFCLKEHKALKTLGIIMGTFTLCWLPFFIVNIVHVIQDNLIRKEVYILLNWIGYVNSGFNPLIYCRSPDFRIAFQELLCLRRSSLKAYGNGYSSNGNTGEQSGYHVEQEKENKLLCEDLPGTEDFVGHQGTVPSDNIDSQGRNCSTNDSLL
# UCH37 inh – inhibitors of human UCH37 deubiquitinase, primary screen, biochemical, Ub-AMC cleavage, fluorescence; Ubiquitin carboxyl-terminal hydrolase isozyme L5 (Homo sapiens), Q9Y5K5; purified proteasome/UCH37; inhibition, % (concentration not given with the values); 330,000 compounds, 0.33% hits; AID 588478, 2011;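 active = mean of two replicates above 20%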;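 also: 0% = compound-free wells with enzyme and 100% = wells lacking proteasome; stock transfer was 100 nL into about 20 µL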
# Target sequence (Q9Y5K5 whole entry, looked up): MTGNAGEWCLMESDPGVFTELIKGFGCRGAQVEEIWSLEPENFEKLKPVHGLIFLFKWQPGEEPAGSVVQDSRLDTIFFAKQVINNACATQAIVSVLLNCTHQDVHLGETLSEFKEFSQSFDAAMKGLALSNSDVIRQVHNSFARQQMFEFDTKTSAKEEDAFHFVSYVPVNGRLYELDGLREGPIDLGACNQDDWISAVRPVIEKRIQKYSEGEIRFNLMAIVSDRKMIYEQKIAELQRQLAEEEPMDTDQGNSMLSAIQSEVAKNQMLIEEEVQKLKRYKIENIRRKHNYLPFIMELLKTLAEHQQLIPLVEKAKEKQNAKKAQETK
#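 Reagent: Ub-AMC substrate; assay system: Proteasome-associated human UCH37 deubiquitinase; controls: no-proteasome and no-compound wells; read-out: % inhibition of Ub-AMC cleavage fluorescence; timing: 30 min preincubation with enzyme, 25 min cleavage at room temperature; signal: AMC fluorescence from Ub-AMC cleavage, excitation 355 nm, emission 460 nm; buffer or medium: Tris-HCl pH 7.4 plus ovalbumin, ATP-MgCl2, DTT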
# Calb FLC – C. albicans growth inhibition with fluconazole, primary screen, CaCi-2 strain, Alamar Blue fluorescence; 300,000 compounds, 0.57% hits; growth inhibition, % (concentration not given with the values); C. albicans CaCi-2 (fluconazole-resistant clinical isolate) + fluconazole, 48 h;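 active = most replicates above 75%; inconclusive = exactly half above 75%; inactive = most below 75%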;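 also: all wells also contain fluconazole at 8 µg/ml as a sub-toxic cotreatment; 0% = median of DMSO wells and 100% = median of geldanamycin control wells; wells of about 8 µL received 7.5 nL stock; the first replicate is given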
# * = called active by the depositor; ? = inconclusive; . = not tested or not shown.
SMILES,LANA-H2B inh,Bfl-1 A1 inh,Beta cell apopt,T cruzi repl,RanGTP-Imp inh,B2AR ag,UCH37 inh,Calb FLC
CCC1=C(OC(=O)N(CC)CC)N2C(=O)OC(=NCCc3c[nH]c4ccccc34)[C@]2(C)[C@H]2C1=CC[C@H]1C(=O)N(C)C(=O)[C@H]12,2.1,0.5,1.5,-4.9,2.6,-11.1,0.8,2.1
CCC(C)NC(=O)CN1C(=O)CSc2ccc(S(=O)(=O)N3CCCC3)cc21 (stereo not given),0.2,-0.6,-1.9,4.5,2.2,3.3,0.0,-5.2
Cc1ccc(S(=O)(=O)Nc2cccc(C(=O)NCC(c3ccco3)N3CCCC3)c2)cc1F (stereo not given),-1.5,1.0,-3.2,38.4,0.8,0.9,0.7,2.9
Cc1ccc2c(cnn2C(=O)CCC(=O)N2CCCCC2C)c1 (stereo not given),4.9,-0.7,-7.3,-3.8,0.2,-1.2,1.4,2.2
Cc1ccc2cc(CCNS(=O)(=O)c3ccc(F)cc3)c(=O)[nH]c2c1,-1.4,0.4,-5.7,.,.,-4.8,4.4,.
CCCc1nnc(NC(=O)CCC(=O)NC2CCCCC2)s1,-4.9,0.2,-5.2,-3.2,-7.1,-9.0,3.2,14.5
CC(C)(C)N1C(=O)[C@H]2[C@@H](c3ccc(Br)cc3)N3C(=O)N(c4cccc(Cl)c4)C(=O)[C@@]3(C)[C@H]2C1=O,3.2,2.1,-2.9,-6.3,2.4,13.9,5.0,25.7
CCn1cc(CCC(=O)NCCc2ccccc2)c2ccccc21,6.8,0.0,-6.9,9.4,-0.7,5.9,-2.6,-14.0
Cn1c(SCC(=O)Nc2ccc(N3CCOCC3)cc2)nnc1-c1ccccc1,2.5,0.3,11.0,-11.4,-0.8,8.6,3.3,21.7
O=C(NC1CCN(C(=S)Nc2ccccc2Cl)CC1)C1CCCCC1,-5.6,-0.3,-0.1,-9.0,2.2,-2.4,2.3,-2.4
CC(=O)Nc1ccc(C(=O)OCC(=O)c2cccc([N+](=O)[O-])c2)cc1,0.2,-0.2,6.7,-16.3,-0.3,-5.5,.,2.9
Cn1cc(C(=O)N/N=C/c2cccc(O)c2)ccc1=O,0.1,-1.0,1.6,2.0,2.1,4.1,.,9.4
CCn1nc(C(=O)NNC(=O)COc2ccc(OC)cc2)c2ccccc2c1=O,-1.2,-1.0,-0.4,-1.5,0.8,19.0,2.0,-2.3
O=C(CSc1nccc(=O)[nH]1)Nc1ccc(Oc2ccccc2)cc1,0.6,0.5,.,-6.7,-2.3,8.2,5.3,-1.8
Cc1ccc(-c2nnc(NC(=O)Cc3ccc(F)cc3)o2)c(C)c1,-2.5,0.0,-2.7,-28.7,6.4,2.8,-0.6,-2.2
CC(=O)c1cccc(N2Cc3ccccc3C2=NC(=O)CCl)c1,-3.3,0.8,-5.2,-17.5,-0.7,8.3,2.9,15.0
CCOC(=O)N1CCC(NC(=O)c2ccc(OC)c(CN3CC(=O)N4CCCC4C3=O)c2)CC1 (stereo not given),5.8,0.1,-4.2,-8.2,-89.3,-4.9,2.2,17.5
COc1ccc(NC(=O)C/C(C)=N/NC(=O)C(=O)NC2CCCCC2)c(OC)c1,-2.0,0.9,-7.3,-10.1,0.9,-7.7,.,-7.1
COc1ccc(CN(C)C2CCCCC2)cc1,0.8,-0.8,-0.2,4.3,5.2,-4.0,3.0,-2.2
CCO/C(C)=C1\N=C(c2ccc(Cl)cc2)OC1=O,-1.0,0.7,-8.8,-7.6,-1.7,6.2,-0.2,13.5
O=C(Nc1ccccc1C(=O)Nc1ccc2c(c1)OCO2)c1ccco1,-3.5,-0.3,3.5,3.4,0.9,10.3,2.1,13.0
COC(=O)c1sc2cc(=O)n(-c3cccc(C(F)(F)F)c3)nc2c1O,2.3,0.4,.,5.7,-5.6,-0.4,3.0,-6.2
CSCCC(NC(=O)c1cccc(C)c1)C(=O)OCC(=O)Nc1c(C)nn(-c2ccccc2)c1C (stereo not given),3.4,0.5,-6.1,-1.4,3.9,-4.3,2.1,-2.9
Cc1ccc(S(=O)(=O)c2ncccc2[N+](=O)[O-])cc1,0.0,0.7,50.5,64.5*,6.3,-73.6,.,108.5*
N=c1n(CCN2CCCC2)c2ccccc2n1CC(O)c1ccc(Cl)c(Cl)c1 (stereo not given),-0.4,0.4,3.8,50.8,0.6,25.0,13.2,-26.0
SMILES,LANA-H2B inh,Bfl-1 A1 inh,Beta cell apopt,T cruzi repl,RanGTP-Imp inh,B2AR ag,UCH37 inh,Calb FLC
C=CCc1c(C)nc2c(C)cccc2c1SC(=N)N,-1.6,0.2,5.5,8.6,-1.0,-8.1,.,-6.5
Cc1ccc(O)c(NC(=O)c2onc(C)c2Cl)c1,-4.1,-1.5,1.2,-2.0,3.4,15.9,2.2,18.9
CSc1ccccc1C(=O)NCC(c1ccco1)N(C)C (stereo not given),-5.2,0.1,.,9.1,-2.5,7.0,2.4,1.6
CCCCCCSC1=C(C#N)C(c2ccc(C)o2)CC(=O)N1 (stereo not given),-0.6,0.5,-1.1,-0.1,2.1,5.6,2.3,-3.3
CCOc1ccc(Oc2cc(N)cc([N+](=O)[O-])c2)cc1,-2.2,0.5,10.3,10.8,-3.8,3.0,2.8,-6.2
COc1ccccc1N1CCN(C(=O)CSc2ncnc3c2cnn3-c2ccc(C)c(C)c2)CC1,1.5,-4.6,1.2,13.4,-3.0,.,-14.4,4.3
Cc1ccc(S(=O)(=O)N(C)C)cc1NC(=O)COc1ccc(-c2nnco2)cc1,-2.0,0.0,2.4,17.2,2.7,-6.3,3.9,-2.6
O=C(Cc1c[nH]c2ccccc12)N/N=C/c1cccc(F)c1,-1.3,0.0,-12.4,-27.7,-1.3,-1.4,.,-8.8
CCN(CC)S(=O)(=O)c1cccc(C(=O)Nc2nncs2)c1,-3.9,-0.3,-4.8,-2.5,-0.5,-25.2,3.5,-5.4
COc1ccccc1NC1=C(NC(C)=O)C(=O)c2ccccc2C1=O,.,.,.,-3.0,1.4,5.7,13.1,35.1
O=C1c2ccccc2CN2C(=O)c3ccccc3CN12,1.6,0.5,-1.9,1.5,0.7,1.6,4.2,2.0
O=[N+]([O-])c1cc(CN2CCCCCC2)ccc1O,-3.3,-0.1,-5.6,9.5,?,5.4,5.6,-8.4
C=CCn1c(COc2ccc(Cl)cc2)nnc1SCC(=O)c1c(N)n(C)c(=O)n(C)c1=O,0.3,0.8,-0.5,-1.7,0.2,9.2,1.2,?
COC(=O)CN1C(=S)N(c2ccccc2)C(=O)C1CC(=O)Nc1ccc(Cl)cc1 (stereo not given),-5.2,-0.3,-5.7,6.7,0.0,-7.2,-0.1,-5.9
CN(C)/C=C/C(=O)c1nnn(C2CCCCC2)c1NC1CCCCC1,-6.1,0.3,-2.9,45.1,-0.3,1.4,15.4,-2.4
CC(NC(=O)c1cccc(S(=O)(=O)N2CCc3ccccc32)c1)c1ccco1 (stereo not given),134.7*,0.6,-2.0,.,.,0.6,2.4,.
COc1cc2c(cc1OC)CN(CC(O)c1ccccc1)CC2 (stereo not given),-1.0,0.3,-2.4,6.9,26.9*,-1.8,-325.0,-4.8
CC(=O)N1C(=O)N(C)C2C1N(C(C)=O)C(=O)N2C (stereo not given),-1.2,0.4,4.8,2.2,-0.4,9.9,5.0,-4.6
COc1ccc(CCNC(=O)C/C(C)=N/NC(=O)c2cnccn2)cc1,0.4,-0.8,-7.4,-5.9,1.8,2.6,.,-0.2
O=C(COC(=O)c1ccccn1)Nc1cc(Cl)ccc1Cl,-0.5,0.0,-4.7,-12.4,-1.3,-1.4,0.3,2.5
CC1CC(C)(C)NC(=S)N1CCCC(=O)Nc1ccc2c(c1)OCCO2 (stereo not given),1.9,-1.1,4.5,-7.2,-3.4,7.2,4.4,4.6
NC(=O)c1ccccc1N1CCCCC1,-6.1,-0.5,-5.8,-7.2,3.0,-8.0,3.8,-17.8
CCc1nnc(NC(=O)c2ccc(OC)cc2OC)s1,-0.7,-2.4,-4.4,-5.0,-1.9,-11.7,2.0,5.4
O=C(NCc1cccs1)C1CCN(C(=O)NCc2ccccc2)CC1,-2.5,-0.9,-1.9,0.4,-0.2,4.4,1.5,9.3
NNC(=O)c1csc(CS(=O)(=O)c2ccc(Cl)cc2)n1,3.9,0.2,4.7,17.6,-1.7,-10.4,5.1,0.4
Cc1cc(C)nc(SCCS(=O)(=O)Cc2ccccc2)n1,6.8,0.1,-1.3,-5.9,-0.1,18.9,-1.0,16.5
CCOc1ccc(NC(=O)C2CCN(S(=O)(=O)c3cccs3)CC2)cc1,-2.7,0.6,10.6,10.0,?,1.7,1.0,24.8
CCOC(=O)Cn1nc(C)n(-c2ccccc2)c1=O,-2.6,-0.2,-4.0,-3.6,?,-7.5,-0.7,-6.7
CC(C)(C)C(=O)Oc1cc(N)n(S(=O)(=O)c2ccc(F)cc2)n1,1.1,1.2,.,7.3,0.1,1.5,1.6,-2.8
O=C(Nc1ccc([N+](=O)[O-])cc1)c1cn(-c2ccccc2)nc1-c1cc2ccccc2o1,7.0,0.9,?,-0.3,2.2,-5.9,4.8,34.7

# Single records, from the list above.
# NC(=O)c1ccccc1N1CCCCC1 across the screens: LANA-H2B inh: -6.1; Bfl-1 A1 inh: -0.5; Beta cell apopt: -5.8; T cruzi repl: -7.2; RanGTP-Imp inh: 3.0; B2AR ag: -8.0; UCH37 inh: 3.8; Calb FLC: -17.8
# CCOc1ccc(NC(=O)C2CCN(S(=O)(=O)c3cccs3)CC2)cc1 across the screens: LANA-H2B inh: -2.7; Bfl-1 A1 inh: 0.6; Beta cell apopt: 10.6; T cruzi repl: 10.0; RanGTP-Imp inh: ?; B2AR ag: 1.7; UCH37 inh: 1.0; Calb FLC: 24.8

# Sorted by number of heavy atoms (largest number first): 4 of the compounds above.
SMILES,LANA-H2B inh,Bfl-1 A1 inh,Beta cell apopt,T cruzi repl,RanGTP-Imp inh,B2AR ag,UCH37 inh,Calb FLC
O=C(Nc1ccc([N+](=O)[O-])cc1)c1cn(-c2ccccc2)nc1-c1cc2ccccc2o1,7.0,0.9,?,-0.3,2.2,-5.9,4.8,34.7
CCN(CC)S(=O)(=O)c1cccc(C(=O)Nc2nncs2)c1,-3.9,-0.3,-4.8,-2.5,-0.5,-25.2,3.5,-5.4
Cc1cc(C)nc(SCCS(=O)(=O)Cc2ccccc2)n1,6.8,0.1,-1.3,-5.9,-0.1,18.9,-1.0,16.5
O=C1c2ccccc2CN2C(=O)c3ccccc3CN12,1.6,0.5,-1.9,1.5,0.7,1.6,4.2,2.0

# Bioassay records: PubChem, several laboratories
